Screening data as filed in PubChem BioAssay.
GALR2 agonist: agonists of human galanin receptor 2 (GALR2). 140,000 tested, 0.48% active. O43603. activation, %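 (tested at 5 µM)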. GALR2-expressing cells, agonist activation read-out. AID 803;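 active = above mean plus 3 SD of all compounds, about 5% in these data, not always enough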;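 also: 0% = vehicle buffer wells and 100% = reference agonist at full effect; tested in CHO reporter cells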
Insulin prom inh: TRM-6 insulin promoter activity inhibition; TRM-6 cells (human fetal islet line), insulin promoter-eGFP reporter, imaging; reporter expression induced with tamoxifen; inhibition, % at 2 µM; 130,000 tested, 0.9% active;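 active = inhibition above the mean plus 3 SD, with well images judged a real hit on visual review, cut at about 60% in these data, passing the limit was not always enough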
PKD1 inh: blocks activity of human protein kinase D1; Q15139; PKD1 kinase fluorescence polarization assay; inhibition, %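 (about 10 µM by stock and volumes)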; 200,000 tested, 0.056% active;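 active = inhibition of 50% or more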;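 also: controls were vehicle for no effect and a reference inhibitor for full effect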
Target sequence (Q15139 whole entry, looked up): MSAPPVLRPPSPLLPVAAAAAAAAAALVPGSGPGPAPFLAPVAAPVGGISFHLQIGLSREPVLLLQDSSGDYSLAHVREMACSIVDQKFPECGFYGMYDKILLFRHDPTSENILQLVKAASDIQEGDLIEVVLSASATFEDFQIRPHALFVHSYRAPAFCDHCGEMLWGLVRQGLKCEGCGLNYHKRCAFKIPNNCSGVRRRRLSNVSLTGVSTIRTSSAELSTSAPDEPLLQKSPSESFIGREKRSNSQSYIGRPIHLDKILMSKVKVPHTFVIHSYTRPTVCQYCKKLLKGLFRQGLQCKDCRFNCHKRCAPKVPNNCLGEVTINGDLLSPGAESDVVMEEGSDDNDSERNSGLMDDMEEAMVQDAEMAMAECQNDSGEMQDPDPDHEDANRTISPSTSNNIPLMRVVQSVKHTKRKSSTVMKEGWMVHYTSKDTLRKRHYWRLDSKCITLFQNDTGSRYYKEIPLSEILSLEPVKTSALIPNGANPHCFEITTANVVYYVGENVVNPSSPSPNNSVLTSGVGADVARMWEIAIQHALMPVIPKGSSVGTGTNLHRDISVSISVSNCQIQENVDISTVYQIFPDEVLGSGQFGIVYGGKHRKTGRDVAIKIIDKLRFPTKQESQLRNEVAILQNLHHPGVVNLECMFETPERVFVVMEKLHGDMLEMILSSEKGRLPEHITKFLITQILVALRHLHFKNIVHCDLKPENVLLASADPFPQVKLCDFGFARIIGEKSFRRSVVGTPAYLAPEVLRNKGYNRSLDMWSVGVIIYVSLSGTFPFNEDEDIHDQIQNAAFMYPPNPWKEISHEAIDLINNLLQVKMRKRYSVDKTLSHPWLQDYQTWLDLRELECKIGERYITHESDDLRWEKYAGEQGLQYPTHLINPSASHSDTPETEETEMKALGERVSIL
HSV replic up: HSV replication enhancement | AID 1956 | maximum fold increase | 220,000 tested, 0.005% active | HSV replication augmentation in cells, fold increase;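 active = peak rise of 1.5-fold or more in the series; tested in PC3 cells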;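 also: first round at 10 µM; read as green reporter fluorescence; hits show the peak of a series up to 25 µM; 1 = signal of infected wells without compound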
RGS16-Gao HTS: RGS16-Galphao interaction regulator (human) | O15492+P09471 | bead-based flow cytometry RGS16-Galphao binding, fluorescence; actives lie on both sides | binding response (% of control), % at 10 µM | 220,000 tested, 0.38% active | AID 1441;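 active = below 25% or above 175%, edge rows of some plates excepted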;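 also: Galphao activated by GDP with aluminum fluoride before binding; 100% = wells without compound and 0% = beads without RGS; some results beyond the cut were filed as inactive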
Insulin prom inh cell count: recorded beside Insulin prom inh, whose call it bears; normalized cell count, %; measured here: cell count, toxicity; reference of the scale not given here;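 cells exposed to compound for 48 h; stained nuclei by imaging scaled within each plate; lower means fewer cells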
HSV replic up primary fold: recorded beside HSV replic up, whose call it bears; fold increase; compound at 10 µM; measured here: primary screen fold increase 10 uM; tested in PC3 cells;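 GFP signal in the first replicate; 1 = infected wells without compound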
* = called active by the depositor.

Results for CN1CCC(=NNc2ncnc3sc4c(c23)CCCC4)CC1 ?
GALR2 agonist: -0.8; Insulin prom inh: 43.8; PKD1 inh: -3.0; HSV replic up: inactive; RGS16-Gao HTS: 34.2; Insulin prom inh cell count: 125.5; HSV replic up primary fold: 0.91

How did CCn1c(SCC(=O)Nc2nc(-c3ccc(C)cc3)cs2)nnc1-c1ccccc1O do in these assays?
GALR2 agonist: -0.1; Insulin prom inh: -7.9; PKD1 inh: -17.9; HSV replic up: inactive; RGS16-Gao HTS: 98.8; Insulin prom inh cell count: 193.1; HSV replic up primary fold: 0.89

What do the screens show for `CC(=O)Nc1ccc(NC(=O)COC(=O)C2(c3ccc(Cl)cc3)CCCC2)cc1`?
GALR2 agonist: -0.4; Insulin prom inh: 36.4; PKD1 inh: -6.7; HSV replic up: inactive; RGS16-Gao HTS: 101.1; Insulin prom inh cell count: 119.7; HSV replic up primary fold: 1.02

What do the screens show for `COC(=O)C(NC(=O)c1ccccc1)=C(C)C`?
GALR2 agonist: -1.9; PKD1 inh: 8.2; HSV replic up: inactive; RGS16-Gao HTS: 107.1; HSV replic up primary fold: 0.77

Results for COc1ccc(CCn2c(-c3ccc(OC)cc3)nc3c(c(=O)c4ccccc4n3C)c2=O)cc1 ?
HSV replic up: inactive; RGS16-Gao HTS: 103.6; HSV replic up primary fold: 1

Results for CC(C)(C)c1ccc(NC(=O)N2CCCN(c3c(Cl)cncc3Cl)CC2)cc1 ?
HSV replic up: inactive; RGS16-Gao HTS: 94.2; HSV replic up primary fold: 0.74

How did O=C(OCC(=O)N1CCN(C(=O)c2ccco2)CC1)c1ccccc1C(=O)c1ccccc1 do in these assays?
GALR2 agonist: -2.1; PKD1 inh: 0.2; HSV replic up: inactive; RGS16-Gao HTS: 100.2; HSV replic up primary fold: 0.923

How did N/C(=N\OC(=O)c1ccc(Cl)c(Cl)c1)c1ccccn1 do in these assays?
GALR2 agonist: -2.5; PKD1 inh: -6.3; HSV replic up: inactive; RGS16-Gao HTS: 99.7; HSV replic up primary fold: 0.92

What do the screens show for `Fc1ccccc1Sc1ccccc1CNC1=NCCN1`?
GALR2 agonist: -0.9; Insulin prom inh: -8.3; PKD1 inh: 3.4; HSV replic up: inactive; RGS16-Gao HTS: 86.5; Insulin prom inh cell count: 63.9; HSV replic up primary fold: 0.89

Results for CC(C)CC(=O)Nc1ccc2oc(-c3ccncc3)nc2c1 ?
GALR2 agonist: -1.8; PKD1 inh: 1.0; HSV replic up: inactive; RGS16-Gao HTS: 99.8; HSV replic up primary fold: 1.02

Results for COC(=O)[C@@]1(Cc2ccc(F)cc2)[C@H]2c3cc(C(=O)N(C)C)n(Cc4ccccc4)c3C[C@H]2CN1C(=O)c1ccccc1 ?
GALR2 agonist: -0.2; Insulin prom inh: 20.0; PKD1 inh: 0.8; HSV replic up: inactive; RGS16-Gao HTS: 102.9; Insulin prom inh cell count: 125.0; HSV replic up primary fold: 0.94

How did CN(C(=O)CSC1=NC2C(N=N1)c1cc(Br)ccc1N2C)C1CCCCC1 (stereo unspecified) do in these assays?
Insulin prom inh: 2.4; PKD1 inh: 2.7; HSV replic up: inactive; RGS16-Gao HTS: 102.1; Insulin prom inh cell count: 149.4; HSV replic up primary fold: 0.99

How did Cc1noc(C)c1CCC(=O)N1CCCC(CCC(=O)NCc2ccccc2F)C1 (stereo unspecified) do in these assays?
Insulin prom inh: 8.7; PKD1 inh: 1.7; HSV replic up: inactive; RGS16-Gao HTS: 47.2; Insulin prom inh cell count: 55.0; HSV replic up primary fold: 1.03

Results for CS(=O)(=O)N(Cc1ccccc1)c1ccc(C(=O)NCc2ccccc2)cc1 ?
GALR2 agonist: 0.6; Insulin prom inh: 10.7; PKD1 inh: -6.5; HSV replic up: inactive; RGS16-Gao HTS: 93.5; Insulin prom inh cell count: 174.8; HSV replic up primary fold: 0.84

What do the screens show for `CCOC(=O)CSc1ncc(OC)c(=O)[nH]1`?
GALR2 agonist: 0.0; Insulin prom inh: -33.3; PKD1 inh: 0.5; HSV replic up: inactive; RGS16-Gao HTS: 33.4; Insulin prom inh cell count: 119.0; HSV replic up primary fold: 0.92

Molecules shown so far that have a Cl atom (3):
What do the screens show for `CC(=O)Nc1ccc(NC(=O)COC(=O)C2(c3ccc(Cl)cc3)CCCC2)cc1`?
GALR2 agonist: -0.4; Insulin prom inh: 36.4; PKD1 inh: -6.7; HSV replic up: inactive; RGS16-Gao HTS: 101.1; Insulin prom inh cell count: 119.7; HSV replic up primary fold: 1.02

Results for CC(C)(C)c1ccc(NC(=O)N2CCCN(c3c(Cl)cncc3Cl)CC2)cc1 ?
HSV replic up: inactive; RGS16-Gao HTS: 94.2; HSV replic up primary fold: 0.74

How did N/C(=N\OC(=O)c1ccc(Cl)c(Cl)c1)c1ccccn1 do in these assays?
GALR2 agonist: -2.5; PKD1 inh: -6.3; HSV replic up: inactive; RGS16-Gao HTS: 99.7; HSV replic up primary fold: 0.92

Next section.
How did Cc1ccc(S(=O)(=O)Nc2ccc(S(=O)(=O)NC(C)(C)C)cc2)cc1 do in these assays?
GALR2 agonist: -1.4; Insulin prom inh: -8.3; PKD1 inh: -7.4; HSV replic up: inactive; RGS16-Gao HTS: 112.9; Insulin prom inh cell count: 89.1; HSV replic up primary fold: 0.95

How did CC(C(=O)Nc1cc([N+](=O)[O-])ccc1Cl)N1CCN(c2ccccc2)CC1 (stereo unspecified) do in these assays?
GALR2 agonist: -1.5; Insulin prom inh: 20.0; PKD1 inh: -2.0; HSV replic up: inactive; RGS16-Gao HTS: 103.8; Insulin prom inh cell count: 92.7; HSV replic up primary fold: 1.12

How did CN(C)CCCN(C(=O)c1cc2ccccc2oc1=O)c1nc2c(F)cccc2s1 do in these assays?
GALR2 agonist: -1.0; PKD1 inh: -8.2; HSV replic up: inactive; RGS16-Gao HTS: 104.0; HSV replic up primary fold: 1.01

How did COc1cc(Cl)cc(C=O)c1OCC(=O)O do in these assays?
PKD1 inh: -4.4; HSV replic up: inactive; RGS16-Gao HTS: 97.1; HSV replic up primary fold: 0.99

How did COC(=O)c1cc2ccccc2c(=O)s1 do in these assays?
GALR2 agonist: -5.0; Insulin prom inh: -71.4; PKD1 inh: -12.3; HSV replic up: inactive; RGS16-Gao HTS: 66.8; Insulin prom inh cell count: 132.3; HSV replic up primary fold: 1.03

What do the screens show for `NS(=O)(=O)c1ccc(Nc2ccccc2)c([N+](=O)[O-])c1`?
HSV replic up: inactive; RGS16-Gao HTS: 86.5; HSV replic up primary fold: 1.18

How did C#CCNC(=O)c1ccc(OCc2ccccc2)cc1Cl do in these assays?
Insulin prom inh: 42.9; PKD1 inh: -3.3; HSV replic up: inactive; RGS16-Gao HTS: 94.3; Insulin prom inh cell count: 76.1; HSV replic up primary fold: 0.95

How did O=C(c1ccccc1C(=O)N1CCN(c2ccc(F)cc2)CC1)N1CCN(c2ccc(F)cc2)CC1 do in these assays?
GALR2 agonist: -1.4; Insulin prom inh: 20.0; PKD1 inh: -11.6; HSV replic up: inactive; RGS16-Gao HTS: 102.3; Insulin prom inh cell count: 107.9; HSV replic up primary fold: 1.02

What do the screens show for `Cc1csc(NC(=O)c2ccco2)n1`?
GALR2 agonist: -1.2; Insulin prom inh: -18.9; PKD1 inh: -10.7; HSV replic up: inactive; RGS16-Gao HTS: 104.8; Insulin prom inh cell count: 121.1; HSV replic up primary fold: 1.16

What do the screens show for `Cc1nn(C)c(C)c1CNC(=O)/C=C/c1ccccc1F`?
GALR2 agonist: -1.6; Insulin prom inh: 71.4*; PKD1 inh: -5.7; HSV replic up: inactive; RGS16-Gao HTS: 108.1; Insulin prom inh cell count: 109.7*; HSV replic up primary fold: 1.11

Results for CSc1cccc(NC(C)=O)c1 ?
GALR2 agonist: 0.6; Insulin prom inh: 3.3; PKD1 inh: -7.8; HSV replic up: inactive; RGS16-Gao HTS: 87.7; Insulin prom inh cell count: 113.2; HSV replic up primary fold: 1.1

What do the screens show for `COc1ccc2cc(C(=O)NCc3ccco3)c(=O)oc2c1`?
GALR2 agonist: 0.7; Insulin prom inh: -5.0; PKD1 inh: -4.7; HSV replic up: inactive; RGS16-Gao HTS: 102.2; Insulin prom inh cell count: 128.6; HSV replic up primary fold: 1.03

Results for COc1cccc(OCC(O)CN2CCC(Cc3ccccc3)CC2)c1 (stereo unspecified) ?
GALR2 agonist: -0.7; PKD1 inh: 3.8; HSV replic up: inactive; RGS16-Gao HTS: 97.7; HSV replic up primary fold: 0.81

What do the screens show for `CC(=Nc1ccc(C)c(C)c1)C1=C(O)CCC1=O`?
GALR2 agonist: -0.7; Insulin prom inh: 21.7; PKD1 inh: -6.0; HSV replic up: inactive; RGS16-Gao HTS: 97.7; Insulin prom inh cell count: 133.9; HSV replic up primary fold: 0.99

What do the screens show for `O=C(COC(=O)c1ccc2ncsc2c1)NC(=O)NCc1ccccc1`?
Insulin prom inh: 11.8; PKD1 inh: 3.7; HSV replic up: inactive; RGS16-Gao HTS: 77.4; Insulin prom inh cell count: 88.6; HSV replic up primary fold: 0.91

How did COc1ccc(-c2noc(CCCOc3ccc(Cl)cc3Cl)n2)cc1 do in these assays?
GALR2 agonist: -1.9; Insulin prom inh: -31.6; PKD1 inh: 2.9; HSV replic up: inactive; RGS16-Gao HTS: 111.6; Insulin prom inh cell count: 239.5; HSV replic up primary fold: 1.03

How did Cc1ncc([N+](=O)[O-])n1CC(=O)NCCc1ccccc1 do in these assays?
PKD1 inh: 5.4; HSV replic up: inactive; RGS16-Gao HTS: 91.0; HSV replic up primary fold: 0.91

What do the screens show for `N#CCCn1cc(C(CC(=O)c2ccccc2)C(=O)O)c2ccccc21` (stereo unspecified)?
GALR2 agonist: -0.6; Insulin prom inh: -52.8; PKD1 inh: 3.9; HSV replic up: inactive; RGS16-Gao HTS: 111.9; Insulin prom inh cell count: 100.0; HSV replic up primary fold: 0.89

How did CCOc1ccc(NC(=O)Cn2sc3nc(C)cc(C)c3c2=O)cc1 do in these assays?
HSV replic up: inactive; RGS16-Gao HTS: 41.3; HSV replic up primary fold: 0.98

How did COc1ccc(-n2nc(C(=O)N3CCCCC3)c3ccccc3c2=O)cc1 do in these assays?
GALR2 agonist: 0.2; PKD1 inh: -0.4; HSV replic up: inactive; RGS16-Gao HTS: 101.8; HSV replic up primary fold: 1.05

Results for C=CCC1(C#N)C(=S)NC2=C(C(=O)CC(C)(C)C2)C1c1ccc(Br)cc1 (stereo unspecified) ?
GALR2 agonist: -0.1; PKD1 inh: -7.4; HSV replic up: inactive; RGS16-Gao HTS: 105.0; HSV replic up primary fold: 1.02

What do the screens show for `COc1cc(OC)c(Nc2cc(C)nc3nc(C)nn23)cc1Cl`?
GALR2 agonist: 0.1; PKD1 inh: -7.1; HSV replic up: inactive; RGS16-Gao HTS: 100.0; HSV replic up primary fold: 1.1

Results for Cc1[nH]n(-c2ccccc2)c(=O)c1/C=N/NC(=O)C(C)C ?
PKD1 inh: 3.4; HSV replic up: inactive; RGS16-Gao HTS: 100.6; HSV replic up primary fold: 0.97

What do the screens show for `COc1ccc(OC)c(NC(=O)c2cnc(Nc3ccccc3OC)c3ccccc23)c1`?
GALR2 agonist: 1.4; Insulin prom inh: -24.1; PKD1 inh: 1.2; HSV replic up: inactive; RGS16-Gao HTS: 97.5; Insulin prom inh cell count: 44.0; HSV replic up primary fold: 0.65

What do the screens show for `Nc1nc(N)c(N=Nc2ccc(Cl)cc2)c(=O)[nH]1`?
PKD1 inh: -6.5; HSV replic up: inactive; RGS16-Gao HTS: 99.8; HSV replic up primary fold: 0.89

What do the screens show for `O=C(Nc1ccc(Br)cc1F)c1sccc1-n1cccc1`?
GALR2 agonist: -1.2; Insulin prom inh: -25.0; PKD1 inh: -5.8; HSV replic up: inactive; RGS16-Gao HTS: 108.8; Insulin prom inh cell count: 113.5; HSV replic up primary fold: 0.92

Results for Cc1sc(-c2ccncc2)nc1OC(=O)c1ccc(Cl)cc1 ?
GALR2 agonist: -0.4; Insulin prom inh: -16.2; PKD1 inh: -4.8; HSV replic up: inactive; RGS16-Gao HTS: 98.4; Insulin prom inh cell count: 93.2; HSV replic up primary fold: 0.93

What do the screens show for `O=C(O)/C=C/c1cccc(NC(=O)c2ccccc2)c1`?
HSV replic up: inactive; RGS16-Gao HTS: 115.0; HSV replic up primary fold: 1.09

Results for Cc1ccccc1C(=O)NC1CCN(Cc2nnnn2C2CCCC2)CC1 ?
GALR2 agonist: -2.7; Insulin prom inh: -3.2; PKD1 inh: -1.0; HSV replic up: inactive; RGS16-Gao HTS: 116.0; Insulin prom inh cell count: 92.6; HSV replic up primary fold: 0.71

How did COCCCN1CN(Cc2ccccc2)CNC1=S do in these assays?
GALR2 agonist: -0.4; Insulin prom inh: 1.6; PKD1 inh: -4.0; HSV replic up: inactive; RGS16-Gao HTS: -3.3*; Insulin prom inh cell count: 77.9; HSV replic up primary fold: 0.96

Compounds were not picked by outcome; any-hit rate near 1.2%.
